Diaph inh CS = counter-screen for diaphorase-based assays: diaphorase inhibitors and chemical oxidizers | diaphorase resazurin-to-resorufin fluorescence, NADH, 16 min; bacterial (C. kluyveri) enzyme, not human | inhibition, % at 20 µM | AID 1217 | 0.69% of 190,000 active;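 active = primary screen inhibition at 20 µM above a set limit, cut at about 50% in these data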;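 also: plate controls were DMSO with full reaction for no effect and wells lacking NADH for full effect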
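Assay system: diaphorase enzyme from Clostridium kluyveri; Input: enzyme working solution with 0.14 U/mL diaphorase; Timing: 16 min at room temperature; Technique: resorufin fluorescence, excitation 544 nm, emission 590 nm; Benchmarks: positive control minus NADH, DMSO neutral control.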
bIAP activator = increases bovine intestinal alkaline phosphatase activity. purified bovine IAP, CDP-star luminescence, 30 min; stronger effect = higher value; fold of DMSO-control signal, blank-subtracted. activation factor at 20 µM. 0.17% of 200,000 active. AID 1016;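 active = activation factor of 2 or more at 20 µM, a signal rise over negative controls twice the positive control's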
TNAP inh noacc = TNAP (human) inhibition, acceptor-free conditions. purified TNAP, CDP-star luminescence, 30 min. P05186. inhibition, % at 20 µM. 0.26% of 200,000 active. AID 1012;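 active = tissue-nonspecific alkaline phosphatase inhibition above about 50% at 20 µM in the single-dose screen, limit read from the data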;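 also: 0% = DMSO negative control and 100% = EDTA positive control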
Target sequence (P05186 whole entry, looked up): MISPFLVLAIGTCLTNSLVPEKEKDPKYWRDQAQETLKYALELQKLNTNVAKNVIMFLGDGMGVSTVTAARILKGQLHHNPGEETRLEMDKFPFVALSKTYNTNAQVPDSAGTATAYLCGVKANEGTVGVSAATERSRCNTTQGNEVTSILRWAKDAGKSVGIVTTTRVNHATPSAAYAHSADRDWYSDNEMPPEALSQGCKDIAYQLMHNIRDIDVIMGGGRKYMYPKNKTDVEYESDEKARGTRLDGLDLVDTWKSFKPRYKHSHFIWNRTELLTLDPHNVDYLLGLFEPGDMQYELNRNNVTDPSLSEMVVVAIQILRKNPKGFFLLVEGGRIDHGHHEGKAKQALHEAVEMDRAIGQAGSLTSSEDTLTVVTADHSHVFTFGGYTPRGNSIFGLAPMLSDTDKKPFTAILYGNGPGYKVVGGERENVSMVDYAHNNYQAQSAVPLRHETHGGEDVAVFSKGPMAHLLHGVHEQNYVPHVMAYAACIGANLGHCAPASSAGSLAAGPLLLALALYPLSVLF
TNAP inh hiacc = inhibitors of human TNAP at high phosphate acceptor concentration; P05186; purified TNAP, CDP-star luminescence, 1 M DEA; inhibition, % at 20 µM; 0.03% of 200,000 active;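 active = over 50% inhibition of tissue-nonspecific alkaline phosphatase at 20 µM in the single-dose screen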;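 also: plate controls were DMSO wells for no effect and EDTA-quenched wells as full inhibition for full effect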
TNAP act hi DEA = increases human TNAP activity under high phosphate acceptor concentration. 200,000 tested, under 10 active. activation factor at 20 µM. P05186. purified TNAP, CDP-star luminescence, 1 M DEA, 30 min; stronger effect = higher value; 0 = EDTA background, 1 = DMSO-only activity. AID 1136;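 active = activation factor at least 2 at 20 µM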
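Assay system: human TNAP; Input: enzyme diluted 1/800 final; Reagent: CDP-star luminogenic substrate at 100 µM final; Timing: 30 min, room temperature; Signal: luminescence; Evaluation: TNAP activation factor scaled between EDTA and DMSO control wells.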
L major viab = inhibitors of Leishmania major promastigote growth; AID 1063; 9% of 200,000 active; Leishmania major promastigotes, resazurin fluorescence viability; inhibition, % at 10 µM; in the data active = inhibition above about 50%;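 also: promastigotes grown with compound for 44 hours at 28 °C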
bIAP inhibitor = intestinal alkaline phosphatase (bovine) inhibition; inhibition, % at 20 µM; 190,000 tested, under 10 active; purified bovine IAP, CDP-star luminescence, 30 min;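 active = over 50% inhibition of intestinal alkaline phosphatase at 20 µM in the single-dose screen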
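Assay system: bovine IAP enzyme; medium: DEA buffer 100 mM, pH 9.8, with MgCl2 1.0 mM, ZnCl2 0.02 mM; doses: 20 µM single dose; incubation: enzyme reaction for 30 min at room temperature; detection: CDP-star luminescence signal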
* hit, by the source's call. An excerpt; count on the stated rates, not on these rows.

SMILES	Diaph inh CS	bIAP activator	TNAP inh noacc	TNAP inh hiacc	TNAP act hi DEA	L major viab	bIAP inhibitor
Cc1sc(NC(=O)C2CCCCC2C(=O)O)c(C(N)=O)c1-c1ccc(C(C)(C)C)cc1 (configuration not stated)	14	1	7	-3	1	-7	0
Cc1cc(C)c2c(N)c(C(=O)c3ccccc3)oc2n1	-8	0.9	0	-10	1.1	5	10
CCNC(=S)NNC(=O)c1cccn(Cc2ccc(Cl)cc2Cl)c1=O	14	1.1	-85	-1	1	-3	-15
COc1ccc(Cc2nc(C(=O)NCc3ccccc3OC)cs2)cc1	23	1	-10	-7	1.1	-1	0
CC(=O)Nc1ccc(S(=O)(=O)N2CCN(c3cc4c(cc3[N+](=O)[O-])n(C)c(=O)n4C)CC2)cc1	8	0.9	-6	3	1	-2	10
CCCCCCCCC[n+]1cccc2c3ccccc3ccc21	-10	0.8	-2	-2	1	101*	17
COc1ccc(C2=NOC(C(=O)NC(C)(C)C)C2)cc1 (configuration not stated)	6	1	-13	-1	1	0	-1
Cc1ccc(C(=O)C(OC(=O)CCC(=O)Nc2cccc(C)c2)c2ccccc2)cc1 (configuration not stated)	16	1	-5	0	1	-5	-5
Cc1cc(/C=C(\C#N)C(=O)Nc2ccccc2)c(C)n1-c1cccnc1	11	0.9	1	1	1	1	13
COc1ccc(CN2CCN(C(=O)c3cccs3)CC2)cc1Br	13	1	-6	-1	1	-4	0
COc1ccc(NC(=O)c2cn(-c3ccccc3)nc2-c2cc3ccccc3o2)cc1	18	0.9	-7	-3	1	31	8
CN(C)S(=O)(=O)Oc1ccsc1C(=O)Nc1ccc(Cl)c(Cl)c1	-4	0.9	-3	0	1	4	14
O=C(O)CSc1ccccc1C(=O)O	12	1	-17	-4	1	-6	1
Cc1ccc(C(=O)c2cc([N+](=O)[O-])ccc2N2CCOCC2)c(C)c1	18	0.9	4	-2	1	19	7
Cc1ccccc1OCC(=O)NC(=S)Nc1ccc(S(=O)(=O)NC2CCCCC2)cc1	13	0.8	6	-3	1	-7	22
CSc1nc(N)nc(SCC(=O)Nc2ccc(Cl)cc2)c1C#N	5	1	-10	-5	1	100*	4
Cc1cc(Br)ccc1NCc1ccccn1	12	1	-4	2	1	-2	-2
N#Cc1ccc(-c2ccc(F)cc2)nc1Sc1ccc(F)cc1	0	0.9	-15	-6	1.1	-10	7
O=c1[nH][nH]c(C(F)(F)F)c1C=Nc1ccc(Cl)cc1	4	1	10	-3	1	1	3
Cc1cc(=O)oc(C)c1C(=O)N1CCCc2ccccc21	-3	1	-7	-3	1	-2	-2
CC(=O)Nc1c(NCC(C)C)c2ccccc2oc1=O	21	1	-11	-3	1	-4	1
CCS(=O)(=O)N1CCC(C(=O)NCCc2ccccc2)CC1	10	1	-15	-7	1.1	-5	5
COc1ccc(-n2nc([N+](=O)[O-])c(=NCCc3ccc(Cl)cc3)n2O)cc1	11	1	-4	4	1	26	3
Cc1cc(C)c2c(c1)[C@@H]1C=CC[C@@H]1[C@H](c1ccc(S(=O)(=O)N3CCOCC3)cc1)N2	23	0.9	-9	1	1	4	8
Oc1ccc(/C=N/NC(=S)NCc2ccco2)cc1	15	1	1	-2	1	-4	-3
CC(=O)Nc1ccc(S(=O)(=O)N2CCN(c3nc(NC4CCCC4)c4ccccc4n3)CC2)cc1	47	1	-16	-10	1.1	32	-4
CCOc1ccc(NC(=O)C(C)Oc2ccccc2C(=O)Nc2cccc(Cl)c2Cl)cc1 (configuration not stated)	-4	1	-1	-5	1	11	2
COc1ccccc1OC(C)c1nnc(SCC(=O)Nc2c(C)n(C)n(-c3ccccc3)c2=O)n1-c1ccccc1 (configuration not stated)	11	1	-5	0	1	-6	4
CCn1nc(C)c(NC(=O)CCSc2nc(-c3ccco3)cc(C(F)(F)F)n2)c1C	14	1	-10	-3	1	2	4
CCCS(=O)(=O)N1CCCC(C(=O)NCCCN(Cc2ccccc2)C(C)C)C1 (configuration not stated)	2	1.1	-6	-2	1	-4	-14

Laid out differently: 22 of the compounds above
Sequence of screens – Diaph inh CS, bIAP activator, TNAP inh noacc, TNAP inh hiacc, TNAP act hi DEA, L major viab, bIAP inhibitor
- CCCCCCCCC[n+]1cccc2c3ccccc3ccc21
    -10, 0.8, -2, -2, 1, 101*, 17
- COc1ccc(C2=NOC(C(=O)NC(C)(C)C)C2)cc1 (configuration not stated)
    6, 1, -13, -1, 1, 0, -1
- Cc1ccc(C(=O)C(OC(=O)CCC(=O)Nc2cccc(C)c2)c2ccccc2)cc1 (configuration not stated)
    16, 1, -5, 0, 1, -5, -5
- Cc1cc(/C=C(\C#N)C(=O)Nc2ccccc2)c(C)n1-c1cccnc1
    11, 0.9, 1, 1, 1, 1, 13
- COc1ccc(CN2CCN(C(=O)c3cccs3)CC2)cc1Br
    13, 1, -6, -1, 1, -4, 0
- COc1ccc(NC(=O)c2cn(-c3ccccc3)nc2-c2cc3ccccc3o2)cc1
    18, 0.9, -7, -3, 1, 31, 8
- CN(C)S(=O)(=O)Oc1ccsc1C(=O)Nc1ccc(Cl)c(Cl)c1
    -4, 0.9, -3, 0, 1, 4, 14
- O=C(O)CSc1ccccc1C(=O)O
    12, 1, -17, -4, 1, -6, 1
- Cc1ccc(C(=O)c2cc([N+](=O)[O-])ccc2N2CCOCC2)c(C)c1
    18, 0.9, 4, -2, 1, 19, 7
- Cc1ccccc1OCC(=O)NC(=S)Nc1ccc(S(=O)(=O)NC2CCCCC2)cc1
    13, 0.8, 6, -3, 1, -7, 22
- CSc1nc(N)nc(SCC(=O)Nc2ccc(Cl)cc2)c1C#N
    5, 1, -10, -5, 1, 100*, 4
- Cc1cc(Br)ccc1NCc1ccccn1
    12, 1, -4, 2, 1, -2, -2
- N#Cc1ccc(-c2ccc(F)cc2)nc1Sc1ccc(F)cc1
    0, 0.9, -15, -6, 1.1, -10, 7
- O=c1[nH][nH]c(C(F)(F)F)c1C=Nc1ccc(Cl)cc1
    4, 1, 10, -3, 1, 1, 3
- Cc1cc(=O)oc(C)c1C(=O)N1CCCc2ccccc21
    -3, 1, -7, -3, 1, -2, -2
- CC(=O)Nc1c(NCC(C)C)c2ccccc2oc1=O
    21, 1, -11, -3, 1, -4, 1
- CCS(=O)(=O)N1CCC(C(=O)NCCc2ccccc2)CC1
    10, 1, -15, -7, 1.1, -5, 5
- COc1ccc(-n2nc([N+](=O)[O-])c(=NCCc3ccc(Cl)cc3)n2O)cc1
    11, 1, -4, 4, 1, 26, 3
- Cc1cc(C)c2c(c1)[C@@H]1C=CC[C@@H]1[C@H](c1ccc(S(=O)(=O)N3CCOCC3)cc1)N2
    23, 0.9, -9, 1, 1, 4, 8
- Oc1ccc(/C=N/NC(=S)NCc2ccco2)cc1
    15, 1, 1, -2, 1, -4, -3
- CC(=O)Nc1ccc(S(=O)(=O)N2CCN(c3nc(NC4CCCC4)c4ccccc4n3)CC2)cc1
    47, 1, -16, -10, 1.1, 32, -4
- CCOc1ccc(NC(=O)C(C)Oc2ccccc2C(=O)Nc2cccc(Cl)c2Cl)cc1 (configuration not stated)
    -4, 1, -1, -5, 1, 11, 2

(continued)
SMILES	Diaph inh CS	bIAP activator	TNAP inh noacc	TNAP inh hiacc	TNAP act hi DEA	L major viab	bIAP inhibitor
COc1ccc(/C=C/C(=O)NCC(=O)N/N=C/c2cc(Br)ccc2OC)cc1	0	1	-6	-1	1	19	-2
O=C(O)/C=C1\NC(=O)c2ccccc21	7	1	-8	-4	1	2	1
On1c(-c2ccccc2)nc2ccc(Cl)cc21	11	1	-12	-7	1.1	-6	-3
CCc1nnc(NC(=O)CSc2nnc(COc3ccccc3)n2Cc2ccccc2)s1	-7	1	-10	-3	1	4	-4
CC1CCN(C(=O)C(NS(=O)(=O)c2cccc3nsnc23)c2ccccc2)CC1 (configuration not stated)	23	1	-6	-4	1	14	3
CCOc1c2ccc(C(=O)NCc3ccco3)cc2nn1CCOC	24	0.9	-12	-6	1.1	-2	6
Cc1ccc(-c2nnc(SCC(C)C)n2C)cc1	-4	0.9	-6	-2	1	-3	5
CCOC(=O)C1=C(C)N=C2SC(C(=O)OC)=CC(=O)N2C1c1cccc(OC)c1 (configuration not stated)	17	1.1	0	0	1	-7	-7
CN=C(Nc1cc(C)nn1-c1ccccc1)c1ccccc1F	9	1	-14	-4	1	3	0
O=C(Nc1ccc(Oc2ccccc2)cc1)C1CCN(c2c3c(nc4ncnn24)CCC3)CC1	8	1.1	-15	-2	1	7	-10
CC(C)C12CCC(C(=O)O)C(C1)C(=O)O2 (configuration not stated)	-13	1.1	-10	-2	1	-4	-5
O=C(NCCCn1ccnc1)c1ccc(S(=O)(=O)N2CCCCCC2)cc1	-2	1.1	-2	-2	1	8	-5
COc1ccc(CN2C(=O)c3ccccc3C(/C=N\OCc3ccc(F)cc3)C2=O)cc1 (configuration not stated)	4	1	-6	-2	1	1	3
CCNc1nc(NCC)nc(C(=O)Nc2ccccc2)n1	10	1	-10	-5	1	0	-4
Cc1ccc(CSC2=CS(=O)(=O)c3ccccc3N2)cc1	10	0.9	4	4	1	3	11
O=C(Nc1ccsc1C(=O)NC1CCCCC1)c1ccc(F)cc1	8	0.9	-5	0	1	-3	9
COc1ccc(/C=N/NC(=O)CO/N=C(\C)c2cccs2)cc1	13	0.8	-8	-7	1.1	3	20
CCOc1ccc2nc(C)cc(C(=O)O)c2c1	6	0.9	-3	-7	1.1	3	10
CSc1ncc(C(=O)O)c(C)n1	16	1.1	-10	-4	1	-5	-9
Clc1ccc(N2N=C(c3cccs3)CC2c2ccco2)cc1 (configuration not stated)	16	1.3	-46	-16	1.2	4	-28
CC(C)(C)N(NC(=O)Nc1ccc(Cl)c(Cl)c1)C(=O)c1ccccc1	14	1	-25	-8	1.1	12	-2
Clc1ccc(-c2nnc(-c3ccco3)o2)cc1	12	0.9	3	-3	1	0	10
O=C(Nc1ccc(-c2cn3ccccc3n2)cc1)c1ccc(Cl)cc1	-28	0.6	6	-8	1.1	-3	45
COc1ccc(-n2c(C)n[nH]c2=O)cc1	7	1	-6	-4	1	-1	-2
COc1ccc(C(=O)Nc2cc(Cl)ccc2OC(=O)c2ccc(OC)cc2)cc1	16	1	-2	0	1	-9	1
CCC(C)NC(=O)C1CCN(S(=O)(=O)c2cccnc2)CC1 (configuration not stated)	11	0.9	-7	-4	1	-3	14
COc1ccc(C2NC(=S)NC3=C2CCc2cc(OC)ccc23)cc1 (configuration not stated)	36	0.8	-2	-2	1	63*	22
COc1ccc(NC(=O)CSc2ncnc3c2cnn3Cc2ccccc2)cc1	17	0.8	-11	-8	1.1	-3	21
O=C(NCCNC(=O)c1cc(OCC(F)(F)F)ccc1OCC(F)(F)F)Nc1ccc(OC(F)(F)F)cc1	9	1	6	0	1	-1	1
O=C(NN=c1c(=O)c2ccccc2c1=O)c1ccccc1	7	0.9	5	-3	1	-1	12
CCc1ccc(OCCCOc2ccc(C=O)cc2)cc1	10	0.9	0	0	1	-1	10
CCOC(=O)C1=C(C)NC(SCC(N)=O)=C(C#N)C1c1ccccc1 (configuration not stated)	15	1	-9	-1	1	12	-3
CCC(CC)c1nnc(NC(=O)C2COc3ccccc3O2)s1 (configuration not stated)	12	1	-15	-8	1.1	-4	3
COC(=O)COc1ccsc1C(=O)OC	7	1.1	-6	1	1	-5	-7
CCC(C)NC(=O)C(NS(=O)(=O)c1cccc2nsnc12)c1ccccc1 (configuration not stated)	16	1	-9	-3	1	3	-3
CCOC(=O)c1sc(-c2ccc(Br)cc2)cc1N	15	0.9	13	-2	1	9	11
O=[N+]([O-])c1ccc(-c2nc(-c3cccs3)c(-c3cccs3)[nH]2)cc1	12	0.6	21	22	0.8	92*	36
Cn1c(-c2ccc[nH]c2=O)nc2cc(Cl)ccc21	4	1	0	1	1	1	-4

Assay outcomes from PubChem BioAssay.
